2A StopGo = lowers the luciferase signal of an FMDV 2A StopGo reporter | human cells with a luciferase reporter of 2A StopGo recoding; control for the full effect not named in the record | Potency, µM (highest dose often 57.9 µM), without a hit: top-dose signal change, negative = less light | hit rate 1.2% among 410,000; active = well fitted falling curve with a large enough effect; inconclusive = small, poorly fitted or top-dose-only effect; inactive = no such curve, though single readings can be large or run the other way; tested in HEK293T cells; note: % is set by controls: 0 for no effect and ±100 for the full control effect; nearly all actives have a fitted effect of over 45% in size; luciferase light after 4 h
NS1 function inh = influenza NS1 inhibition; S. cerevisiae slowed by influenza A NS1, growth recovery by OD600; Potency, µM (highest dose often 46.1 µM), for inactives: top-dose activity, positive = more growth; hit rate 0.4% among 270,000; note: actives are rising curves; nearly all actives have a fitted effect of over 50% in size
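OD600 was taken as the measure of yeast growth restored by compound in an NS1-expressing S. cerevisiae strain. Cells had been washed out of glucose medium and diluted 1:100 into galactose -URA medium, pH 6.0.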
LASV entry inh = blocks Lassa virus binding to or entry into cells. Lassa virus pseudotype entry inhibition, cell reporter; control for the full effect not named in the record. Potency, µM (series often up to 37.9 µM), for the others: at the highest dose activity change, negative = inhibition, most hits filed as inhibitors. hit rate 1.2% among 300,000; active means well fitted inhibition curve with a large enough effect; inconclusive means small, poorly fitted or top-dose-only effect, or effect the other way; inactive means flat fitted curve, though single readings scatter; tested in HEK293 cells; note: % is set by controls: 0 for no effect and ±100 for the full control effect; nearly all actives have a fitted effect of over 50% in size; luciferase read-out
Marburg entry inh = Marburg virus entry inhibition; Marburg virus pseudotyped entry inhibition, cell reporter; control for the full effect not named in the record; about a third of the inactives were read at about 46 µM; Potency, µM (top dose mostly 37.8 µM), inactives show at the top dose activity change, negative = inhibition, most hits filed as inhibitors; hit rate 1.8% among 300,000; AID 540276; active = well fitted inhibition curve with a large enough effect; inconclusive = small, poorly fitted or top-dose-only effect, or effect the other way; inactive = flat fitted curve, though single readings scatter; tested in HEK293 cells; about a fifth of its hits are not listed in these tables; note: % is set by controls: 0 for no effect and ±100 for the full control effect; luciferase read-out
Cruzain inh noDet = cruzain (T. cruzi) inhibition without detergent | P25779 | purified cruzain, Z-FR-AMC fluorescence, no detergent | Potency, µM, for inactives: max response, negative = inhibition, usual class: inhibitors | hit rate 2.3% among 200,000 | AID 1476; active = well fitted curve in the direction sought with a large enough effect; inconclusive = small, poorly fitted or top-dose-only effect, or another doubt; inactive = no such curve, though single readings can be large; an effect the other way counts as inactive or inconclusive;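 note: plate controls were enzyme without inhibitor for no effect and buffer without enzyme for full effect; nearly all actives have a fitted effect of over 40% in size; top concentration of the series not given in the record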
Target sequence (P25779 123-467 limits assumed): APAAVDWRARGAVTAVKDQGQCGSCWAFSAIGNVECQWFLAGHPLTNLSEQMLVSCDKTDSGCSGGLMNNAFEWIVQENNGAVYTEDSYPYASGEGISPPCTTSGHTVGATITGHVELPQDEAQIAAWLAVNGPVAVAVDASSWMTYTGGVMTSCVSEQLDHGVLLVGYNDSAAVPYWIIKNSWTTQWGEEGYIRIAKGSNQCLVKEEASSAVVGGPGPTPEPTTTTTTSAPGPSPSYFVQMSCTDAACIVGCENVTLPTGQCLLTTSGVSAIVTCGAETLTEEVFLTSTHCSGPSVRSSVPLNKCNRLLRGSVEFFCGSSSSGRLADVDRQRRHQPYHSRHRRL
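Purified cruzain at 1.5 nM, pre-incubated 15 min with compound at room temperature in 100 mM sodium acetate pH 5.5, 5 mM DTT, 0.00005% Triton X-100. Reaction started with 2 uM Z-FR-AMC; AMC fluorescence increase over 60 s gives rate.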
Cruzain inh Det = cruzain (T. cruzi) inhibition with detergent; P25779; purified cruzain, Z-FR-AMC fluorescence, 0.01% Triton; Potency, µM, for inactives: max response, negative = inhibition, actives largely listed as inhibitors; hit rate 0.43% among 200,000; active = well fitted curve in the direction sought with a large enough effect; inconclusive = small, poorly fitted or top-dose-only effect, or another doubt; inactive = no such curve, though single readings can be large; an effect the other way counts as inactive or inconclusive;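 note: plate controls were neutral wells for no effect and buffer without enzyme for full effect; nearly all actives have a fitted effect of over 40% in size; top concentration of the series not given in the record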
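Purified cruzain (1.5 nM final) was preincubated with compounds for 15 min at room temperature in 100 mM sodium acetate pH 5.5, 5 mM DTT, 0.01% Triton X-100. Reaction started with 2 uM Z-FR-AMC; AMC fluorescence change over 60 s gave activity.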
RE007 growth inh = less growth of the S. pombe RE007 Vpr strain; S. pombe RE007 Vpr strain, BacTiter-Glo ATP luminescence, 24 h; control for the full effect not named in the record; Potency, µM (series often up to 92.2 µM), for the others: at the highest dose activity change, negative = less growth; AID 651644; hit rate 0.21% among 360,000; active = well fitted falling curve with a large enough effect; inconclusive = small, poorly fitted or top-dose-only effect; inactive = no such curve, though single readings can be large or run the other way;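 note: % is set by controls: 0 for no effect and ±100 for the full control effect; nearly all actives have a fitted effect of over 50% in size; the assay follows cell death caused by Vpr and the record does not say whether a fall means rescue or toxicity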
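Fission yeast RE007 carrying one integrated HIV-1 vpr copy, seeded at OD 0.01 in PMG+AL medium with 23 nL pinned compound. Grown 24 h at 30 degrees; viability read by BacTiter-Glo luminescence after 5 min.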
SARS PLP yeast = SARS-CoV PLP inhibition in yeast; S. cerevisiae expressing SARS-CoV PLpro, growth rescue; control for the full effect not named in the record; hit rate 0.19% among 330,000; Potency, µM (highest dose often 32.9 µM), without a hit: at the top dose activity, positive = growth rescue; note: 0% is about no effect; nearly all actives have a fitted effect of over 55% in size; growth read by luminescence after 48 h
The depositor's hits bear a star; ? = inconclusive; . = not tested or not shown; & = joins results of further samples; [ ] = dose if it differs, or a comment. Unless noted, calls come from the whole dose curve; as a rule, active means well fitted rising curve with a large enough effect; inconclusive means small, poorly fitted or top-dose-only effect; inactive means no such curve, though single readings can be large or run the other way. Potency is the fitted concentration of half-maximal effect.

SMILES | 2A StopGo | NS1 function inh | LASV entry inh | Marburg entry inh | Cruzain inh noDet | Cruzain inh Det | RE007 growth inh | SARS PLP yeast
C/C(=N/NS(=O)(=O)c1cc(C)ccc1C)c1ccncc1 | 25% | 7% | . | . | . | . | 9% | -1%
COc1ccc(NS(=O)(=O)c2ccc(C(=O)N3CCCCCC3)cc2)cc1 | -22% | . | ? | ? | . | . | -20% | 2%
Cc1ccc2cccc(OC(=O)N(C)c3ccccc3)c2n1 | -9% | -4% | -3% | 6% | 1% | 0.8% | 11% | 0%
O=C(CS(=O)(=O)c1ccccc1)Nc1ccc(S(=O)(=O)Nc2ncccn2)cc1 | 1% | . | 3% | 11%[46.1 µM] | . | . | 6% | 6%
CC(C)c1ccc(S(=O)(=O)NC2CCCC2)cc1 | 11% | -18% | -12%[46.1 µM] | ? | . | . | -10% | 0%
CC(C)n1cnnc1SCC(=O)Nc1cccc(S(=O)(=O)N(C)c2ccccc2)c1 | -16% | -4% | . | . | . | . | 4% | -5%
Cc1cc(OCC(=O)N(Cc2ccccc2)C2CCS(=O)(=O)C2)ccc1Cl (stereo not given) | -27% | 1% | . | . | . | . | 5% | 5%
O=C(NC(=O)c1cccc(OC(F)(F)C(F)F)c1)OC1CCS(=O)(=O)C1 (stereo not given) | 4% | ? | 0% | 2% | -5% | 2.3% | 23% | 0%
Cc1c(C(=O)NC2CCCc3ccccc32)cccc1[N+](=O)[O-] (stereo not given) | 15% | ? | . | -17%[46.1 µM] | . | . | 4% | 3%
O=C(CSc1ccc2nnc(-c3ccncc3)n2n1)NCC1CCCO1 (stereo not given) | -17% | -57% | . | . | . | . | 0% | 1%
O=C(C1CCCN1S(=O)(=O)c1ccc(Cl)cc1)N1CCCCC1 (stereo not given) | -1% | 7% | 12% | -9% | . | . | 0% | 2%
Cc1ccc(C(=O)NCC2(c3ccccc3)CCCC2)cc1 | -27% | -12% | -10% | -6% | 1% | 1.5% | 7% | 1%
O=c1[nH]c(=O)c2nc3c4ccccc4c4ccccc4c3nc2[nH]1 | -9% | 3% | ? | ? | . | . | 26% | 1%
COc1cc(C2NCCC(=O)C2(C)C)cc(OC)c1OC (stereo not given) | -12% | -8% | 19% | ? | 6% | 1.3% | 17% | -16%
O=C(Nc1cccc2ccccc12)c1nn(C23CC4CC(CC(C4)C2)C3)cc1[N+](=O)[O-] | 14% | 25% | -15% | -16% | ? | 2.9% | 12% | -1%
COc1ccc(NS(=O)(=O)c2cccc(C(=O)NNC(=O)c3ccc(NC(C)=O)cc3)c2)cc1 | -26% | . | 11% | ? | . | . | -4% | 3%
CCOc1ccc(-n2c(C)cc(C(=O)CCl)c2C)cc1 | 28µM* | . | 10µM* | ? | . | . | ? | -7%
CCC(=O)N(Cc1cc2cc(OC)ccc2[nH]c1=O)c1cccc(C)c1 | 15% | -8% | -11% | ? | 3% | -3.4% | -15% | 2%
CCOC(=O)c1cccc(N2C(=O)C3C(C2=O)C2C=CC3C23CC3)c1 (stereo not given) | -24% | 4% | -13% | -5% | -2% | 3.2% | -4% | -1%
CC(C)CN(C(=O)c1cc([N+](=O)[O-])cc([N+](=O)[O-])c1)C1CCS(=O)(=O)C1 (stereo not given) | -15% | . | 0% | -1% | . | . | -22% | -2%
CC(C)(C)C1(O)CC(C(F)(F)F)=NN1C(=O)CCc1ccccc1 (stereo not given) | -16% | -3% | -6% | -20%[46.1 µM] | . | . | -14% | 0%
CSc1nsc(SC)c1C(=O)Nc1ccc(C(C)(C)C)cc1 | 13% | 10% | 9%[46.1 µM] | 11µM* | . | . | -9% | -2%
CN(C)C(=O)CSc1nnc(CCCCCNC(=O)OC(C)(C)C)o1 | 22% | 1% | 5% | -4% | 4% | 5.1% | 3% | -4%
CCOC(=O)c1ccc(NC(=O)Cn2cnc3sc(C(=O)OCC)c(C)c3c2=O)cc1 | 10% | . | 13%[46.1 µM] | . | -6% | 0.6% | . | .
O=S(=O)(Nc1cccc(CCc2ccccn2)c1)c1ccc(Cl)cc1 | -16% | -42% | . | . | . | . | -3% | -1%
COC(=O)c1ccc(OC(=O)CCS(=O)(=O)c2ccc(C)cc2)cc1 | -6% | . | 9% | 21% | . | . | -24% | 2%
COc1ccc(S(=O)(=O)Nc2ccc(F)c(Cl)c2)cc1OC | 5% | 2% | -4% | -9% | -4% | 2.7% | 6% | -1%
COC(=O)[C@H](CCSC)NC(=O)NCCC1=CCCCC1 | 12% | -3% | -8% | 18% | 6% | 0.7% | 5% | -7%
CC(=O)OCc1cc(=O)n2nc(C3CCCCC3)sc2n1 | 23% | . | 1%[46.1 µM] | . | 5% | -1.2% | . | .
CCCCn1nnc(NC(=S)NC(=O)c2ccc(-c3cccc(Cl)c3Cl)o2)n1 | ? | 2% | 4% | ? | -26% | -12% | -18% | -6%
CCN1CCN(C(C(=O)NC2CCCC2)c2ccc(Cl)cc2)CC1 (stereo not given) | -20% | 0% | . | . | 2% | -1.0% | -2% | -3%
O=C(C(Cc1ccc(Cl)cc1)NS(=O)(=O)c1ccccc1)N1CC[C@@]2(O)CCCC[C@H]2C1 (stereo not given in full) | -5% | 4% | ? | -13% | 14% | 4.5% | -1% | 8%
O=C(COc1ccccc1Cl)c1ccc2c(c1)CCCC2 | 34%[activator] | -1% | -23% | ? | -7% | -0.2% | 2% | -20%
COCCN(C(=O)COC(=O)c1ccc(C=O)cc1)c1c(N)n(Cc2ccccc2)c(=O)[nH]c1=O | -6% | 14% | -4% | 21% | . | . | -2% | -1%
Cc1ccc(NC(=O)C2=CC(c3ccc4c(c3)OCO4)=NS(=O)(=O)N2C)cc1 | -12% | . | 21%[46.1 µM] | 4%[46.1 µM] | 4% | -2.4% | . | .
Cc1cc(C)c(C)c(OCC(=O)NCC2CCCO2)c1 (stereo not given) | 19% | -16% | 8% | -5% | 4% | -4.7% | -15% | -11%
O=C(NCC1CCCO1)c1ccc([N+](=O)[O-])o1 (stereo not given) | 4% | -13% | -11%[46.1 µM] | -25%[46.1 µM] | . | . | -7% | -4%
O=C(COc1c(F)c(F)cc(F)c1F)NNC(=O)CC1CCS(=O)(=O)C1 (stereo not given) | -1% | . | 23% | 2% | . | . | 10% | -2%
O=C(NCc1ccccc1F)C1CCCN(c2cnccn2)C1 (stereo not given) | -3% | 13% | . | . | . | . | -14% | 3%
O=C(Nc1ccc2c(c1)CCC2)c1ccc(F)cc1 | -3% | -7% | ? | 11µM* | 2% | -3.4% | 22% | -9%
CON1C(=O)CN(C(C)=O)C1c1ccc(Cl)cc1Cl (stereo not given) | . | 6% | 0% | 12% | 2% | 3.4% | -8% | 2%
COc1ccc(-n2c(C)nc3c(cnn3-c3ccc(C)c(C)c3)c2=O)cc1 | -3% | -90% | . | . | 3% | -4.9% | 17% | 0%
O=C(Nc1ccccc1N1CCCC1)c1ccc(N2CCCC2=O)cc1 | -7% | . | -3% | -10% | . | . | 6% | 3%
COc1ccc(CNC(=O)Cn2c(=O)n3nc(-c4cccc(F)c4)nc3c3ccccc32)cc1OC | -19% | . | -9%[46.1 µM] | . | 1% | -1.1% | . | .
c1ccc2[nH]c(SCCN3CCOCC3)nc2c1 | . | -4% | 5% | 22% | -10% | 3.5% | -4% | 3%
c1ccc2[nH]c(CN3CCCCCC3)nc2c1 | 6% | -11% | -2% | -7% | -12% | 4.1% | 16% | -4%
CCc1ccc(CNC(=O)CCCn2c(=O)c3cccn3c3cccnc32)cc1 | -14% | ? | . | . | . | . | 1% | -3%
COC(=O)c1sccc1-n1cccc1C(=O)C(=O)N1CCCCC1 | -7% | -48% | 5% | 1%[46.1 µM] | -3% | -5.4% | 8% | 20%
O=c1nc(-c2ccccc2)c2cc(Br)ccc2[nH]1 | 26% | -10% | -7%[46.1 µM] | -9%[46.1 µM] | . | . | -15% | -5%
Fc1ccccc1Cc1cn2cc(-c3ccc(Cl)cc3)nc2s1 | -2% | . | -4%[46.1 µM] | ? | -6% | -1.9% | . | .
More results follow.
SMILES | 2A StopGo | NS1 function inh | LASV entry inh | Marburg entry inh | Cruzain inh noDet | Cruzain inh Det | RE007 growth inh | SARS PLP yeast
COc1ccc2cnn(-c3ccc(OC(F)(F)F)cc3)c(=O)c2c1OC | 9% | 0% | 11%[46.1 µM] | ? | . | . | -3% | -1%
COc1cc(/C=C/C(=O)O)cc(S(=O)(=O)Nc2ccc3[nH]c(=O)[nH]c3c2)c1OC | -3% | 10% | 7% | -16%[46.1 µM] | . | . | 11% | 2%
CCOC(=O)C1CCN(CC(=O)Nc2ccc(S(=O)(=O)N3CCC(C)CC3)cc2)CC1 | -22% | -6% | . | . | . | . | -1% | 0%
Cn1cnc2c1c(=O)n(Cc1cccc(F)c1)c(=O)n2C | 6% | 28% | . | . | . | . | 1% | 1%
CCOC(=O)N1CCc2c(sc(NCc3cccc(F)c3)c2C(=O)Nc2ccc(OC)cc2OC)C1 | -9% | . | ? | . | ? | -7.0% | . | .
Nc1ncnc2[nH]c(=S)[nH]c12 | -12% | . | -16%[46.1 µM] | ? | . | . | -3% | .
COc1cc(/C=C2/SC(=O)N(Cc3ccccc3)C2=O)ccc1OCc1ccncc1 | -17% | 1% | ? | -26% | 17% | -0.2% | 8% | 7%
CCN1C(=O)c2ccccc2S(=O)(=O)c2ccc(C(=O)NCc3ccc(OC)cc3)cc21 | -23% | . | -1%[46.1 µM] | -10%[46.1 µM] | -2% | -0.9% | . | .
Cn1c(=O)c2cc3ccc(Cl)cc3nc2n(C)c1=O | -10% | 3% | 17% | 7% | . | . | -1% | 1%
COc1ccc(CN(C(=O)Nc2ccccc2)c2ccccn2)cc1OC | 19% | . | 0%[46.1 µM] | 3%[46.1 µM] | 9% | -5.9% | . | .
COc1c(F)c(F)c(C(=O)Nc2ccccc2N2CCN(C(=O)C(C)C)CC2)c(F)c1F | -36% | -34% | 6% | 4%&4% | ? | 7.5% | -2% | -6%
CC(CC(=O)Nc1nnc(CC(C)(C)C)s1)c1ccccc1 (stereo not given) | 16% | 18% | . | . | . | . | 14% | -3%

Compound activity deposited in PubChem by National Center for Advancing Translational Sciences (NCATS).
